D2 agonist = Beta-Arrestin HTS for Positive Allosteric Modulators of the Human D2 Dopamine Receptor: Agonists. 360,000 tested, 0.084% active. DiscoveRx PathHunter D2 beta-arrestin, luminescence, 90 min; 100% = 57 uM dopamine signal. AID 624465, 2012. activation, % (no concentration beside the values); in the data active = activation above about 40%; inconclusive = about 15% to 40%; inactive = below about 15%; further: compound concentration not given in the record; the text of the record calls up to 30% inactive
Target sequence (P14416 whole entry, looked up): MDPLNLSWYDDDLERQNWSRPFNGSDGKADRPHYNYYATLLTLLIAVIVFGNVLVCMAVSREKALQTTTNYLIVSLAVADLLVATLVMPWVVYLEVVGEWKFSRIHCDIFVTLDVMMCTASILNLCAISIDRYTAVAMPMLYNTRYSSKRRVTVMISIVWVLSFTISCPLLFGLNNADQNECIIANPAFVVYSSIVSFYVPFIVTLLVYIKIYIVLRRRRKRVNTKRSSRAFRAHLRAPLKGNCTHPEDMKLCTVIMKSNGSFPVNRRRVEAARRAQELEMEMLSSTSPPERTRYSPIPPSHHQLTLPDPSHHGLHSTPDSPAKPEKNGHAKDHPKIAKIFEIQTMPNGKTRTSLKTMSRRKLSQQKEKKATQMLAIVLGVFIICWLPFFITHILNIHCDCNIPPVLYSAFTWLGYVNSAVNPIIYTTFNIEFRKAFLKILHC
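Agonist mode: compounds alone added to overnight-plated D2 PathHunter cells for 90 min at 37 C, with 57 uM final dopamine (EC100) defining full response. Beta-arrestin recruitment detected by chemiluminescent reagent, read after 1 h at ambient temperature.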
gsp antagonist = qHTS for Antagonists of gsp, the Etiologic Mutation Responsible for Fibrous Dysplasia/McCune-Albright Syndrome: qHTS; AID 624288, 2012; Potency, µM (highest dose often 76.9 µM), inactives show at the highest dose activity change, negative = inhibition, actives largely listed as inhibitors; gsp-mutant cells, cAMP HTRF, 30 min; control for the full effect not named in the record; 340,000 tested, 0.4% active; active = falling curve of any shape with a large fitted effect; inconclusive = falling curve, mostly with a smaller effect; inactive = flat or rising curve; cell line not stated here;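 further: intracellular cAMP measured with PDE inhibitor Ro 20-1724 present during compound exposure; potency means the concentration at half of the fitted maximal effect; on the % scale 0 is the no-effect control and ±100 the full control effect; nearly all actives have a fitted effect of over 65% in size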
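G418-selected cells were plated in DMEM/10% FBS for 16-24 h at 37C, then treated with compounds plus the PDE inhibitor […] (300 uM solution added) for 30 min at 37C. Intracellular cAMP was measured by HTRF after 30 min lysis at room temperature.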
CtBP-E1A inh = qHTS Assay for Inhibitors of the CtBP/E1A Interaction. CtBP / adenovirus E1A interaction (AlphaScreen). AlphaScreen GST-E1A/His-CtBP binding, 1536-well; hits give low values; control for the full effect not named in the record. activity change, % (no concentration beside the values). 340,000 tested, 0.49% active. AID 651724, 2012; in the data active means activity change below about -65%; inconclusive means about -30% to -65%; inactive means above about -30%; further: on the % scale 0 is the no-effect control and ±100 the full control effect; compound concentration not given in the record
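In 5 uL wells, 23 nL compound meets equimolar GST-E1A and His-CtBP (5X stock 125 nM each) for 2 h, 37 °C. Beads (5X, 50 ug/mL) then 1 h, 37 °C, dark.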
Six1-Eya2 inh = qHTS Assay for Inhibitors of the Six1/Eya2 Interaction; activity change, % (no concentration beside the values); AlphaScreen GST-Six1/His-Eya2 binding, biochemical; hits give low values; control for the full effect not named in the record; AID 651725, 2012; Homeobox protein SIX1 (Homo sapiens) + Protein phosphatase EYA2 (Homo sapiens), …; 360,000 tested, 0.56% active; in the data active = activity change below about -65%; inconclusive = about -30% to -65%; inactive = above about -30%; further: on the % scale 0 is the no-effect control and ±100 the full control effect; compound concentration not given in the record
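Homogeneous AlphaScreen proximity assay pairing GST-Six1 with His-tagged Eya2 (added as 5X mix: 250 nM and 500 nM) in 50 mM Tris pH 8.0, 300 mM NaCl, 1 mM TCEP. Glutathione donor and nickel acceptor beads; 1 h, 37 °C, dark.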
D2 potentiator = Beta-Arrestin HTS for Positive Allosteric Modulators of the Human D2 Dopamine Receptor: Potentiators; DiscoveRx D2 beta-arrestin cells, luminescence, 90 min; 100% = 57 uM dopamine signal; 360,000 tested, 0.23% active; D(2) dopamine receptor (Homo sapiens), P14416; potentiation, % (test concentration not listed); active = potentiation of 50% or more; inconclusive = 30% to 50%; inactive = 30% or less;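 further: compound concentration not given in the record; tested on top of an EC20 dose of dopamine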
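PathHunter beta-arrestin assay in DiscoveRx D2 cells. Compounds were added with an EC20 of dopamine (50 nM final) for 90 min at 37 deg C. Luminescence was read 1 h after detection reagent, with 57 uM dopamine as the EC100 control.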
gsp agonist = qHTS for Agonist of gsp, the Etiologic Mutation Responsible for Fibrous Dysplasia/McCune-Albright Syndrome: qHTS; gsp mutant cells, cAMP HTRF, 30 min; control for the full effect not named in the record; Potency, µM (highest dose often 76.9 µM), without a hit: top-dose activation (cAMP increase), usual class: activators; 340,000 tested, 0.13% active; AID 624287, 2012; active = well fitted activation curve with a large enough effect; inconclusive = small, poorly fitted or top-dose-only effect, or another doubt; inactive = no such curve, though single readings can be large or run the other way; cell line not stated here;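 further: phosphodiesterase inhibitor Ro 20-1724 added with compounds to block cAMP breakdown; potency means the concentration at half of the fitted maximal effect; nearly all actives have a fitted effect of over 60% in size; about a fifth of the inactives were tested at one dose only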
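Cells stably selected in G418 were plated at 2000/well, grown 16-24 hr, then given compounds in DMSO with the PDE inhibitor […] (300 uM solution added) for 30 min at 37C; cAMP was read by HTRF.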
Starred values were filed as active, the others as inactive; ? = inconclusive; · = not tested or not shown; [ ] = another dose, or the depositor's remark.

SMILES	D2 agonist	gsp antagonist	CtBP-E1A inh	Six1-Eya2 inh	D2 potentiator	gsp agonist
CN(Cc1ccccc1)c1ncnc2[nH]ncc12	-1.8	-2%	13	7	-3	-60%
COc1ccc(N2C(=O)CSC23C(=O)Nc2ccccc23)cc1OC (configuration not stated)	5.6	4%	0	-3	9	-26%
COC(=O)c1sc2nc(SCc3cccc(Cl)c3)n(N)c(=O)c2c1C	0.7	11%	3	0	3	1%[15.4 µM]
COc1ccc(CCNC(=O)CCn2c(=O)c3cccn3c3cccnc32)cc1OC	-9.8	13%	-9	-1	0	?
COc1ccc(C)cc1N(CC(=O)N1CCCC1)S(C)(=O)=O	-3.1	14%	0	0	-2	10%[15.4 µM]
CCCc1cc(=O)oc2cc(OCC(=O)NCCc3c[nH]c4ccccc34)ccc12	8.8	-6%	-7	-6	-11	·
CCOC(=O)N1CCC(N(CCN(C)C)C(=S)Nc2cccc(Cl)c2)CC1	-0.6	-12%	-3	20	-8	-18%
COc1ccc(-n2c(C)c(C(C)=O)c3cc(O)ccc32)cc1	-5.9	4%	·	8	-7	?
COc1cccc2c(=O)cc(C)n(CC(=O)Nc3ccc(C)c(C)c3)c12	2.7	-23%	-70*	-94*	-4	37%
COc1ccc2[nH]cc(CCNC(=O)C3CCCO3)c2c1 (configuration not stated)	-1.9	-1%	-7	-20	1	-4%
O=C(Nc1ccccc1Cl)c1cc[n+](Cc2ccc([N+](=O)[O-])cc2)cc1	-1.9	3%	·	0	-12	7%
CCc1noc(C)c1C(=O)N1CCCC(N2CCN(c3cccc(Cl)c3)CC2)C1 (configuration not stated)	-4.4	-4%	2	-9	-11	0%[15.4 µM]
O=C(COc1ccc(S(=O)(=O)N2CCOCC2)cc1)Nc1ccccc1F	-5.2	6%	9	0	-5	6%[15.4 µM]
OCC1(CCOc2ccccc2)CCN(C2Cc3ccccc3C2)CC1	-4.6	13%	0	-3	-9	2%
O=C1CCCCC1CCc1ccncc1 (configuration not stated)	-0.8	10%	-1	3	-9	-2%[15.4 µM]
CC(NC(=O)C1CCCC1)c1ccc2c(c1)OCCO2 (configuration not stated)	-1.3	1%	2	2	3	-9%
COc1ccccc1NC(=O)CSc1nc(C)c2c(c1C#N)CCCC2	-1.1	-2%	4	1	-7	-9%
Cn1ccc(C(=O)OCC(=O)c2ccccc2)n1	-1.2	9%	0	0	-3	-3%
COc1ccc(Cc2nnc(SCC(=O)Nc3nc(C)cs3)o2)cc1	-1.8	-11%	-7	-2	-7	?
COc1cccc(CNCc2ccc(C(=O)O)cc2)c1OC	2.7	5%	3	26	-3	23%
S=c1nc(-c2ccccc2Cl)[nH][nH]1	0.0	8%	11	-15	-25	-6%[15.4 µM]
Cc1nn(-c2ccccc2)nc1CNC(=O)CC(C)(C)C	-3.9	5%	·	-2	-22	9%
O=C(Nc1ccc(F)c(Cl)c1)c1csc(COCCO)n1	-3.2	·	3	3	-8	·
COc1ccccc1CNS(=O)(=O)c1ccc2[nH]cc(C(=O)O)c(=O)c2c1	-2.9	1%[15.4 µM]	-5	-25	-14	-3%
N#C/C(=C\c1cc(Cl)cc(Cl)c1O)C(=O)NC1CCCCC1	-2.5	-18%	-12	-11	-1	-7%

Complete entries from above. Values in the order: D2 agonist	gsp antagonist	CtBP-E1A inh	Six1-Eya2 inh	D2 potentiator	gsp agonist
Shown for COc1ccccc1CNS(=O)(=O)c1ccc2[nH]cc(C(=O)O)c(=O)c2c1 = -2.9	1%[15.4 µM]	-5	-25	-14	-3%
Shown for CCc1noc(C)c1C(=O)N1CCCC(N2CCN(c3cccc(Cl)c3)CC2)C1 (configuration not stated) = -4.4	-4%	2	-9	-11	0%[15.4 µM]
Shown for O=C(COc1ccc(S(=O)(=O)N2CCOCC2)cc1)Nc1ccccc1F = -5.2	6%	9	0	-5	6%[15.4 µM]

Next section.
SMILES	D2 agonist	gsp antagonist	CtBP-E1A inh	Six1-Eya2 inh	D2 potentiator	gsp agonist
COc1ccc(S(=O)(=O)c2cnc3ccc(OC)cc3c2N2CCC3(CC2)OCCO3)cc1	1.7	-8%	-1	-10	2	-8%
CC(=O)C1=NOC2C(=O)N(c3ccc(Cl)cc3)C(=O)C12 (configuration not stated)	-5.4	-2%	·	2	-4	12%
CC1CC2C3CCC4=CC(=O)C=CC4(C)[C@@]3(Cl)C(O)CC2(C)C1(O)C(=O)CO (some centres not stated)	7.9	-4%	10	0	-4	·
O=C(/C=C/c1cccc([N+](=O)[O-])c1)OCC(=O)c1ccccc1	-1.1	-6%	·	-10	-2	7%
CC(Oc1cccc(NC(=O)c2cccs2)c1)C(=O)c1ccccc1 (configuration not stated)	0.5	-14%	-1	-10	-7	6%[15.4 µM]
O=C1c2ccccc2C(=O)N1CCC(c1ccccc1)c1ccco1 (configuration not stated)	-0.7	-21%	8	12	-7	-39%[inhibitor]
COc1ccc(/C=C/C(=O)OCC(=O)NC2CCCC(C)C2C)c(OC)c1 (configuration not stated)	-3.0	-5%	-6	2	-6	-14%
CN(C)CCn1c(SCc2ccccc2C#N)nc2c(sc3ccccc32)c1=O	-7.2	-10%	·	-19	0	-6%
Nn1c(SCC(=O)Nc2ccc(F)cc2F)nnc1C1CCCCC1	-0.2	2%	-1	7	-1	13%
O=C(CSc1nc2ccccc2c(=O)n1-c1ccccc1Cl)NC1CCS(=O)(=O)C1 (configuration not stated)	-7.6	13%	3	-1	-3	-2%
CCCNC(=O)C1CCN(c2ccc(S(=O)(=O)N3CCOCC3)cc2Cl)CC1	0.6	-6%	7	7	-6	-5%
COc1ccc(-c2cc(C(=O)Nc3ccc(C)cc3)no2)cc1	0.7	1%	3	2	1	19%
CSc1nc(Cl)cc(Nc2ccc(O)cc2)n1	2.7	-16%	-10	-10	2	-8%[15.4 µM]
Cc1cc(C)cc(NC(=O)N2CCCN(c3c(Cl)cncc3Cl)CC2)c1	-5.3	7%	-1	-7	-11	-11%
CCCCOc1ccc(-c2nnn(CC(=O)c3c[nH]c4ccccc34)n2)cc1	3.5	0%	0	-2	11	0%
CC1CN(C(=S)Nc2ccc(Br)cc2Cl)CC(C)O1 (configuration not stated)	-0.4	7%	12	12	-22	-36%[inhibitor]
CCC(C(=O)Nc1ccc(N2CCOCC2)c(S(=O)(=O)Nc2ccccc2OC)c1)c1ccccc1 (configuration not stated)	-0.9	-6%	1	-15	-2	0%[15.4 µM]
S=C(c1ccc2c(c1)OCO2)N1CCCCCC1	-5.9	5%	-2	-2	-2	11%
Cc1cccc(OCCN2CSC(=S)N(C)C2)c1	-1.7	3%	22	1	10	-6%
CCOCc1nnc(NC(=O)c2ccco2)s1	-0.1	-2%	9	3	-11	31%
C=C(CCC(=O)c1ccccc1)C(=O)c1ccccc1	-4.2	9%	-4	3	-25	-11%
O=C(CCN1C(=O)c2ccccc2C1=O)N(CCO)Cc1ccccc1	-0.5	-2%	·	0	18	4%
CCn1c(SCC(=O)N/N=C/C=C/c2ccco2)nc2ccccc21	1.7	-5%	-12	-16	-5	?
CC(C)N(Cc1ccccc1)C(=O)COC(=O)c1ccc(O)cc1	-1.2	-8%	11	-4	-2	-1%
COc1ccc(Cc2c(O)nc[nH]c2=O)cc1	-0.8	-2%	5	2	1	9%

(continued)
SMILES	D2 agonist	gsp antagonist	CtBP-E1A inh	Six1-Eya2 inh	D2 potentiator	gsp agonist
O=C(Nc1nc2ccccc2[nH]1)c1ccccc1O	2.6	-11%	6	0	1	?
O=C(Nc1ccc(Br)cn1)c1cccc(S(=O)(=O)N2CCCC2)c1	3.1	-4%	?	-29	-1	-10%
Cc1cccc(N2CCN(c3ccc(NC(=O)/C=C(/C(=O)O)c4ccccc4)cc3)CC2)c1	-0.9	-6%	-9	-12	15	-23%
Cn1nnnc1SCC(=O)Nc1ncc(C(F)(F)F)cc1Cl	-1.7	7%	0	-3	-18	-3%[15.4 µM]
O=C(Cn1nnc(-c2ccccc2F)n1)Nc1ccc2c(c1)OCCO2	-2.1	7%	5	-8	0	-2%
Nc1c(C(=O)O)cnn1-c1ccc([N+](=O)[O-])cc1	-0.3	3%	14	11	-9	-3%[15.4 µM]
CCOc1c(Nc2ccc(C(C)C)cc2)c(=O)c1=O	-5.1	-2%	·	0	-24	-9%
N#Cc1c(N)nc2c3c(sc(=N)c2c1N)NC(=O)CC3c1ccccc1Cl (configuration not stated)	-0.6	13%	2	2	?	?
O=C(CCNS(=O)(=O)c1ccc(OC(F)(F)F)cc1)N1CCN(S(=O)(=O)c2cccc(F)c2)CC1	-2.7	-11%	6	6	-8	1%[15.4 µM]
Cc1ccc(C(=O)Nc2sc3c(c2C(=O)O)CCCCC3)o1	-1.1	?	0	-3	4	10%
CCN(CC)S(=O)(=O)c1cccc(NC(=O)COC(=O)c2cccs2)c1	1.1	3%	3	-3	1	-11%
Cc1ccc(CNS(=O)(=O)NCc2ccccc2)cc1	-3.1	8%	6	4	-14	-7%[15.4 µM]
O=S(=O)(Nc1ccc(N2CCCCC2)cc1)c1cccs1	0.6	-5%	-19	-19	-20	-86%[inhibitor]
Cc1ccccc1Cn1c2ccccc2c2cnn(CC(=O)NCCCN3CCOCC3)c(=O)c21	-2.8	-14%	-7	-8	-9	-13%
CCOc1ccccc1NC(=O)CSc1nnc(NC(=O)c2ccco2)s1	-3.4	1%	-9	-16	-19	-25%
COc1ccc(-c2[nH]ncc2CN(C)CC2CCCCO2)cc1F (configuration not stated)	-4.5	11%	0	-5	-12	-38%[inhibitor]
COc1ccc(S(=O)(=O)N2CCOCC2)cc1NC(=O)COC(=O)C1CC2CCCC(C1)C2=O (configuration not stated)	-0.9	-1%	-5	-6	-4	0%
CCc1nc(SCC(=O)O)c(C#N)cc1C	-0.8	-12%	2	4	6	?
CCOC(=O)N1CCN(C(=O)COc2ccc(S(=O)(=O)NC3CCCCC3)cc2C)CC1	2.7	-11%	1	12	-16	7%
CCN(CC)S(=O)(=O)c1cc([N+](=O)[O-])ccc1N=Nc1c(O)[nH]c2ccccc12	0.4	-6%	-2	-2	-2	-50%
Cc1cc(C)c2cc(C#N)c(N3CCCN(C(=S)NCCCN(C)C)CC3)nc2c1	-1.4	17%	1	3	-12	-23%

Part of the list above, in CSV form:
smiles,D2 agonist,gsp antagonist,CtBP-E1A inh,Six1-Eya2 inh,D2 potentiator,gsp agonist
CC1CC2C3CCC4=CC(=O)C=CC4(C)[C@@]3(Cl)C(O)CC2(C)C1(O)C(=O)CO (some centres not stated),7.9,-4%,10,0,-4,·
CCn1c(SCC(=O)N/N=C/C=C/c2ccco2)nc2ccccc21,1.7,-5%,-12,-16,-5,?

Source: PubChem (National Center for Advancing Translational Sciences (NCATS))
